Source: PubChem BioAssay
PINK1 expr mod: A Quantitative High throughput Screen to Identify Chemical Modulators of PINK1 Expression; Potency, µM (top dose mostly 76.6 µM), without a hit: at the top dose activation (PINK1 increase), most hits filed as activators; 0.2% of 410,000 active; PINK1 immunofluorescence, high-content cytometry, 24 h; active = well fitted activation curve with a large enough effect; inconclusive = small, poorly fitted or top-dose-only effect; inactive = flat fitted curve, though single readings scatter; cell line not stated here;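 further: potency means the concentration at half of the fitted maximal effect; % of control where 0% means no effect; nearly all actives have a fitted effect of over 65% in size; a mitochondrial uncoupler was the plate control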
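Stable cell line treated 24 h with compounds at 5 concentrations (CCCP controls), then fixed and immunostained for PINK1 plus nuclear and cell stains; PINK1 immunofluorescence quantified by laser-scanning microplate cytometry.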
CtBP-E1A blk: qHTS Assay for Inhibitors of the CtBP/E1A Interaction | activity change, % (no concentration beside the values) | AID 651724, 2012 | AlphaScreen GST-E1A/His-CtBP binding, 1536-well; active compounds read low; control for the full effect not named in the record | 0.49% of 340,000 active; in the data active means activity change below about -65%; inconclusive means about -30% to -65%; inactive means above about -30%; further: on the % scale 0 is the no-effect control and ±100 the full control effect
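Protein mix (5X: 125 nM each GST-E1A, His-CtBP) was incubated with pinned compound 2 h at 37 deg C in dark, in 50 mM Tris pH 8.0 buffer with 300 mM NaCl. Glutathione donor and nickel acceptor beads followed; AlphaScreen signal read after 1 h.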
TRPML1 inh: qHTS for Inhibitors of the Human Mucolipin Transient Receptor Potential 1 (TRPML1) | Mucolipin-1 (Homo sapiens), Q9GZU1 | AID 624415, 2012 | activity change, negative = inhibition, % (concentration not given with the values) | 0.02% of 390,000 active | TRPML1-inducible cells, Ca2+ dye fluorescence, FDSS; active compounds read low; inhibition of EC80 agonist-evoked calcium signal; in the data active means activity change below about -50%; inconclusive means about -30% to -50%; inactive means above about -30%;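 further: stimulus is agonist 54-4 at its EC80 concentration; on the % scale 0 is the no-effect control and ±100 the full control effect; the text of the record puts the active cut at -80%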
Target sequence (Q9GZU1 whole entry, looked up): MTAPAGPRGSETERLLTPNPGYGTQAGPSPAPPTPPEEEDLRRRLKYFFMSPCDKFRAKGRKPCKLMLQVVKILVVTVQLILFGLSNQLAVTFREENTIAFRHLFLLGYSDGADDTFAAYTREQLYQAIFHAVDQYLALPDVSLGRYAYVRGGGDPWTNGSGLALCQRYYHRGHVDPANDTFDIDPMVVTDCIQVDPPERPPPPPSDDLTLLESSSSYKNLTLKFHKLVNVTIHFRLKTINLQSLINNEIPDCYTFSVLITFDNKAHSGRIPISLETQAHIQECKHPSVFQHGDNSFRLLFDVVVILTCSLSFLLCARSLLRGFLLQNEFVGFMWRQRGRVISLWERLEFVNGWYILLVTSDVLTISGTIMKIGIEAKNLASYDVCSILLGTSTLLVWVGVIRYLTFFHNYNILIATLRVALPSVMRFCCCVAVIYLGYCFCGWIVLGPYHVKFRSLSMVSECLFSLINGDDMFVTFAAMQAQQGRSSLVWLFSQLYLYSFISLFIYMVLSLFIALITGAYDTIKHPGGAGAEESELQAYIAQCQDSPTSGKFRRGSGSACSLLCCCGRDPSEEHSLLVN
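TRPML1-DL cells, Tet-induced overnight (~16 h, 37 °C) at 1,500 cells/well, were loaded with Ca8 no-wash dye plus quencher for 45-90 min at room temperature. Compounds were pinned during FDSS kinetic reading; agonist 54-4 at EC80 (4 uM final) then added.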
D2 ag: Beta-Arrestin HTS for Positive Allosteric Modulators of the Human D2 Dopamine Receptor: Agonists; D(2) dopamine receptor (Homo sapiens), P14416; DiscoveRx PathHunter D2 beta-arrestin, luminescence, 90 min; 100% = 57 uM dopamine signal; activation, % (concentration not given with the values); 0.084% of 360,000 active; AID 624465, 2012; in the data active = activation above about 40%; inconclusive = about 15% to 40%; inactive = below about 15%; further: compound concentration not given in the record; the text of the record calls up to 30% inactive
Target sequence (P14416 whole entry, looked up): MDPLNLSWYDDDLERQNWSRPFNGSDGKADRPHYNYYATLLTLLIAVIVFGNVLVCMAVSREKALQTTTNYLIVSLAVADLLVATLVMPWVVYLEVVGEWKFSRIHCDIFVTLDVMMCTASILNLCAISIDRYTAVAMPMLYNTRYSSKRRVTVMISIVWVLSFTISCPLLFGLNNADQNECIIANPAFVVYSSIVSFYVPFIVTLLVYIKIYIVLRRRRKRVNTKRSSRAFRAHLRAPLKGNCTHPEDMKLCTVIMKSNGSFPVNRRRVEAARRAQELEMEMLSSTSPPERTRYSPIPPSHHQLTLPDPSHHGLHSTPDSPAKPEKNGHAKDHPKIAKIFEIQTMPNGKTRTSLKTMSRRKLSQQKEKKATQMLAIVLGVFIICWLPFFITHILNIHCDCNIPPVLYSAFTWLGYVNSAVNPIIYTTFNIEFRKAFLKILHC
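DiscoveRx PathHunter D2 beta-arrestin cells (2,100/well) attached overnight, then compound-stimulated 90 min at 37 C in HBSS/10 mM HEPES/0.1% Tween-20 buffer; beta-galactosidase complementation read by luminescence after 1 h at ambient temperature. Dopamine 57 uM final (EC100) as control.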
Six1-Eya2 blk: qHTS Assay for Inhibitors of the Six1/Eya2 Interaction. Homeobox protein SIX1 (Homo sapiens) + Protein phosphatase EYA2 (Homo sapiens), …. AlphaScreen GST-Six1/His-Eya2 binding, biochemical; active compounds read low; control for the full effect not named in the record. activity change, % (test concentration not listed). 0.56% of 360,000 active; in the data active = activity change below about -65%; inconclusive = about -30% to -65%; inactive = above about -30%; further: on the % scale 0 is the no-effect control and ±100 the full control effect
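Compounds are tested against tagged Six1 and Eya2 proteins bridged by glutathione donor and nickel acceptor beads; after a one-hour incubation at 37 °C without light, AlphaScreen emission is recorded.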
TRPML1 agonist: qHTS for Agonists of the Human Mucolipin Transient Receptor Potential 1 (TRPML1); activation, % (concentration not given with the values); TRPML1-expressing cells, Ca2+ dye fluorescence, FDSS; host cell line not named in the record; reference of the full effect not given here; Mucolipin-1 (Homo sapiens), Q9GZU1; 0.12% of 410,000 active; in the data active = activation above about 50%; inconclusive = about 30% to 50%; inactive = below about 30%; further: 0% is about no effect; the text of the record puts the active cut at 80%
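Kinetic FDSS Ca2+ read in Tet-induced TRPML1-DL cells (ABD Ca8 dye plus quencher, 45-90 min RT loading): baseline, then compound, then 110 s agonist window; EC80 agonist 54-4 at 4uM final added afterwards for a 110 s antagonist window.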
Starred values were filed as active, the others as inactive; ? = inconclusive; . = not tested or not shown; [ ] = another dose, or the depositor's remark.

SMILES	PINK1 expr mod	CtBP-E1A blk	TRPML1 inh	D2 ag	Six1-Eya2 blk	TRPML1 agonist
COC(=O)c1ccccc1N/C=C1\CCc2c(c(C)nn2-c2ccccn2)C1=O	2.4%	-2	7	2.1	-4	-0.6
CC(C)c1ccc(NC(=O)C2CSC3(C)CCC(=O)N23)cc1 (configuration not stated)	0.8%	1	-17	3.5	5	-0.4
CN(C)CCNC(=O)NC1CCCCC1	0.5%	-3	-2	-2.4	12	-0.1
CS(=O)(=O)N1CCC(C(=O)Nc2cccc(C(F)(F)F)c2)CC1	-0.2%	9	1	-1.9	2	-0.8
Cc1cccc(-n2c3c(cc(-c4nc(-c5ccc(Cl)cc5)cs4)c2=O)C(=O)CC(C)(C)C3)c1	-0.5%	.	-6	.	.	-0.1
Cc1cccc(-n2c(C)nc3c(cnn3-c3ccc(F)cc3)c2=O)c1	-2.4%	-1	78	-2.6	-3	3.0
CC1Cc2ccccc2N1CC(=O)Nc1ccc(N2CCOCC2)cc1 (configuration not stated)	0.9%	-2	-10	0.8	-15	0.0
O=C(Nn1c(SCc2ccc([N+](=O)[O-])cc2)nc2ccccc2c1=O)c1ccc(F)cc1	0.5%	-15	5	-4.9	-14	0.0
CCC(CC)NCc1ccc2c(c1)c1ccccc1n2CC	?	.	-12	0.0	-1	-0.2
CC(=O)c1nn(-c2cccc(Cl)c2)cc1C(=O)c1ccco1	17%	3	10	-2.5	-2	3.1
Cc1cc2oc(C(=O)NCCc3ccc(S(N)(=O)=O)cc3)c(C)c2cc1C	2.7%	4	4	4.8	6	-0.5
Cc1ccc(N2C3=C(C(=O)CC(C)(C)C3)C(c3cn(C)nc3C)C3=C2CC(C)(C)CC3=O)cc1	?	3	.	-1.6	-1	.
Cc1ccc2nc(C)cc(C(=O)Nc3nccs3)c2c1	1.1%	-8	20	-1.3	-15	0.1
Cc1occc(=O)c1OCc1c(F)cccc1Cl	0.3%	-5	-24	1.7	0	-0.7
Cc1cc(NC(=O)c2cc(S(=O)(=O)N3CCCCC3)ccc2C)no1	1.1%	1	?	-2.7	7	1.7
O=C(Cc1noc2ccccc12)NNC(=S)Nc1ccccc1	0.5%	-9	-7	-6.5	-17	0.3
CCCCNC(=O)CCCCn1c(=S)[nH]c2c([nH]c3ccc(OC)cc32)c1=O	0.4%	.	-4	-5.6	-1	-0.3
Cc1cccc(NC(=S)NNC(=O)c2csc3c2CCC(C)C3)c1 (configuration not stated)	6.2%[38.3 µM]	-10	-4	-5.0	-5	-0.4
CCOc1cc(/C=N/N2C(=O)NC3(CCCCC3)C2=O)cc(Br)c1O	-0.6%	.	3	-6.0	7	0.7
O=C(Cn1nc(Cc2cccnc2)c2ccccc2c1=O)N1CCN(c2ccccc2F)CC1	2.3%	.	-7	.	.	-0.6
CCOc1ccc(C(C)C)cc1S(=O)(=O)Nc1cccc(-c2ccc(N3CCOCC3)nn2)c1	2.2%	.	5	.	.	-0.8
CC(C)C[C@H]1CNC(=S)N1CC1CCN(CCC23CC4CC(CC(C4)C2)C3)CC1	4.5%	-4	14	-3.5	-2	-1.1
Cc1cc(OCC(O)CN2CCc3ccccc3C2)cc(C(C)C)c1 (configuration not stated)	7.6%	.	-9	?	-6	-0.3
Fc1ccc(-c2nnc(CSc3nnc4ccccn34)o2)cc1	-0.6%	0	-11	-2.7	18	-0.2
Cc1ccc(O)c(NC(=O)C2CCCN2C(=O)OCc2ccccc2)c1 (configuration not stated)	-0.2%	1	13	-11	-1	-0.6
Next compounds
SMILES	PINK1 expr mod	CtBP-E1A blk	TRPML1 inh	D2 ag	Six1-Eya2 blk	TRPML1 agonist
Cc1cc(C(F)(F)F)nn1CC(=O)N(C)C1CCCCC1	0.4%	-1	-17	-1.0	4	-0.9
CCCc1cc(=O)[nH]c(NCCc2ccccc2)n1	0.0%	7	15	-5.9	8	-0.4
Cc1ccc(S(=O)(=O)N2CCCCC2)cc1NC(=O)Cc1c[nH]c2ccccc12	1.0%	-13	4	0.0	-13	-0.7
O=C(Nc1ccccc1)NC1(C(=O)N2CCC(O)CC2)CCCCC1	-0.1%	-12	8	-1.7	2	0.7
Cc1cnc(C(=O)N(CCCn2ccnc2)C2C(=O)Nc3ccccc3N=C2c2ccccc2)cn1 (configuration not stated)	0.1%	3	-2	-5.3	2	-0.5
COc1cc(/C=C2/NC(=O)N(Cc3ccccc3F)C2=O)cc(OC)c1O	8.4%	3	22	3.7	-3	4.0
Cc1nn(C)c(C)c1NC(=O)CSc1nc(-c2ccccc2F)nc2c1cnn2-c1ccccc1	3.8%	0	19	0.3	1	-0.6
CC(NC(=O)CCc1nnc(-c2ccc(-c3ccccc3)cc2)o1)c1nccs1 (configuration not stated)	1.4%	6	-23	6.3	3	-0.3
CCCCOC(=O)CSC1=C(C#N)C(c2cccnc2)C(C(=O)OCC)=C(c2ccccc2)N1 (configuration not stated)	19%	-5	1	1.1	0	1.1
CCOC(=O)CN1C(=O)C(=O)N(Cc2ccccc2F)C1=O	1.1%	10	-25	3.5	1	0.7
Cc1cccn2c(=O)cc(COc3ccc(NC(=O)C(C)C)cc3)nc12	2.3%	.	-20	.	.	0.2
Cc1ccc(NS(=O)(=O)c2ccc(Cl)c(C(=O)Nc3cccc(C(=O)O)c3)c2)cc1	3.2%	2	2	-8.4	-3	0.2
COc1ccc(/C=C(\NC(=O)c2ccccc2)C(=O)NC2CCCCC2)cc1	1.1%	.	29	.	.	-0.3
CCOc1ccc(S(=O)(=O)N2CCC(C(=O)NC3CCCC3)CC2)cc1	2.1%	1	4	3.1	1	0.5
CC1(c2nnc(-c3cccc(Cl)c3)o2)CC(c2c(Cl)cccc2Cl)=NO1 (configuration not stated)	1.1%	6	2	-1.6	-20	0.4
COc1cccc(NC(=O)Nc2nnc([C@H]3C[C@H](O)[C@@H](CO)O3)s2)c1	0.1%	2	-8	1.2	0	0.1
COc1ccc(CN2C(=O)C(CC(=O)NC3CC3)CC(C(=O)N(C)C)=C2C)cc1 (configuration not stated)	3.0%	6	?	-0.5	25	-0.3
O=C(Nc1ccc(Br)cc1)c1ccc(F)c(S(=O)(=O)NC2CCCCCC2)c1	?	.	8	.	.	1.2
Cc1ccc(C(CC(N)=O)c2ccco2)cc1 (configuration not stated)	1.0%	0	-6	-2.6	-1	-1.1
CC(NC(=O)CCC(=O)c1ccc(F)cc1)C1CC2CCC1C2 (configuration not stated)	0.4%	-9	-24	-5.8	3	-0.4
CCn1ccc2cc(S(=O)(=O)N3CCC(C(=O)NCCOC)CC3)ccc21	1.3%	.	-13	.	.	0.0
CCOC(=O)C1=C(c2ccccc2)Nc2ncnn2C1c1cccc(O)c1 (configuration not stated)	-0.5%	-8	.	-7.8	-14	.
Cc1ccc2oc(=O)c3cnn(CC(=O)Nc4ccccc4N4CCN(C)CC4)c3c2c1	0.6%	3	-5	0.4	0	-0.3
CC(NC(=O)COc1ccccc1)C(=O)N1CCN(c2ccc(F)cc2)CC1 (configuration not stated)	7.6%	6	59	0.6	-2	0.5
CCC1CCC(C(=O)NC(C(=O)Nc2cccc(OC)c2)C(C)C)CC1 (configuration not stated)	-0.8%	.	-3	.	.	-0.5
(list continues)
SMILES	PINK1 expr mod	CtBP-E1A blk	TRPML1 inh	D2 ag	Six1-Eya2 blk	TRPML1 agonist
CCOc1ccc(NC(=O)c2ccccc2NC(=O)CN(C)CC(=O)Nc2ccc(C)cc2)cc1	5.4%	-12	-6	-1.5	2	0.6
CC12CCC(C(=O)N(NC(=O)c3cccnc3)C1=O)C2(C)C (configuration not stated)	2.8%	1	48	3.1	1	0.5
O=C(Nc1cccc(Br)c1)c1ccccc1-c1ccccc1	?	8	18	-8.0	22	2.8
Cc1ccc(C(C)C)c(OCCCn2c(=O)oc3ccc(C)cc32)c1	0.4%	.	7	.	.	1.8
O=S(=O)(Nc1ccc(-n2cnnn2)cc1)c1ccc(Cl)s1	0.6%	3	5	1.4	-2	-0.8
O=C(COC(=O)/C=C/c1cccc(F)c1)Nc1ccc(Cl)cn1	1.3%	9	5	-3.4	-1	-0.3
Cc1ccc(/C=N/NC(=O)c2ccncc2)s1	5.1%	-21	-11	1.7	-13	-0.2
O=C(O)c1[nH]c2ccccc2c1C(c1ccccc1)c1c(C(=O)O)[nH]c2ccccc12	1.3%	5	12	-3.3	-6	1.1
CCOc1ccc(N2C(=O)CC(SCCN)C2=O)cc1 (configuration not stated)	-1.9%	3	5	-1.5	7	0.1
Cc1cc(C)cc(OCCCOc2cccc3cccnc23)c1	5.6%	1	1	-3.2	-4	3.4
COc1cc(NC(=O)c2ncn(-c3ccccc3)n2)cc(OC)c1	-0.5%	.	-9	.	.	-0.3
COc1ccc(Br)cc1/C=C/c1ccc2cccc(O)c2n1	?	-6	46	-3.4	-3	0.8
COC(=O)C(NC(=O)c1ccccc1)=C1C=C(C)OC(C)=C1	-1.2%	-8	0	9.2	2	-0.2
Cc1ccc(-n2ncc3c(NC4CCCCCC4)ncnc32)cc1Cl	6.9%	.	18	.	.	-0.4
CCOC(=O)/C=C1\NC(=O)C(C)S1 (configuration not stated)	4.2%	8	8	-0.7	7	0.3
COc1ccc(C(F)(F)F)cc1N/C=C\c1nnnn1-c1ccccc1	0.3%	14	-5	0.3	12	0.4
COC(=O)C1=C(CSc2nccn2C)NC(=O)NC1c1cc(C)ccc1C (configuration not stated)	13%[38.3 µM]	1	-6	0.6	-1	-0.1
